PV pol inh: poliovirus RdRp elongation inhibitors, primary screen, biochemical, fluorescence polarization, total intensity; Genome polyprotein (Poliovirus type 1 (strain Mahoney)), P03300; poliovirus polymerase elongation; hits give low values; % elongation, % (compound at 16.7 µg/mL); actives 0.66% (n = 150,000); AID 588519, 2011; in the data active = % elongation below about 90%; note: some results filed as inactive read as strong as hits
Target sequence (P03300 1749-2209 limits assumed): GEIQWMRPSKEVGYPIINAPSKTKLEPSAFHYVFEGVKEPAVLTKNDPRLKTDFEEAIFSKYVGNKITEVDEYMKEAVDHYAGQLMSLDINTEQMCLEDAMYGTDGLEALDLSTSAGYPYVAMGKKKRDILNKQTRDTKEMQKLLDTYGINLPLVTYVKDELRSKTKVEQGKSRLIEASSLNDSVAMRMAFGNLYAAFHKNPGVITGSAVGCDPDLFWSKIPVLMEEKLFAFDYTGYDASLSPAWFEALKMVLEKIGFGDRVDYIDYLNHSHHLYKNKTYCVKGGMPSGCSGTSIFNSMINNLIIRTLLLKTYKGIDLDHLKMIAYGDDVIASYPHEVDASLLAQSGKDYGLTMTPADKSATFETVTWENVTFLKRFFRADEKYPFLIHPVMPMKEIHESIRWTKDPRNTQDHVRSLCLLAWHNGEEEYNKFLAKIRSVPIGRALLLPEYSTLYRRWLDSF
PV pol inh intensity: further read-out of PV pol inh, marked with its call; % elongation; measured here: total intensity read-out; formula for this scale not given here;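 total fluorescence in place of polarization; lower means less elongation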
* = called active by the depositor. Some of the compounds tested (hit frequency here may not be typical).

#1 CCOC(=O)c1scc(-c2ccccc2)c1S(=O)(=O)Nc1cc(Cl)c(OC)cc1OC
#2 CCOc1ccc(NC(=O)CN2CCN(S(=O)(=O)c3ccc(OC)cc3)CC2)cc1
#3 CCN(Cc1ccccc1)C(=O)Cn1c(=O)n(-c2ccc(C)c(C)c2)c(=O)c2c(C)c(C)sc21
#4 CCc1cccc(-n2c(=O)c3cccnc3n2CC(=O)Nc2ccc(F)c(C)c2)c1
#5 CCOc1ccc(NC(=O)Cn2cc(C(=O)c3ccccc3)c(=O)c3cc(OC)ccc32)cc1
#6 O=C(Cn1cc(S(=O)(=O)N2CCN(c3ccccc3F)CC2)c2ccccc2c1=O)Nc1ccc(F)cc1Cl
#7 CCOc1ccccc1CNC(=O)C1CCN(C(=O)N2CCOc3ccc(Cl)cc32)CC1
#8 Cc1cccc(CN2C(=O)CN=C(c3ccccc3)c3cc(Cl)ccc32)c1

Assay by compound,1,2,3,4,5,6,7,8
PV pol inh,103.0,105.0,102.0,110.0,105.0,108.0,109.0,103.0
PV pol inh intensity,108.0,104.0,106.0,112.0,109.0,105.0,111.0,107.0

#9 Cc1ccc(NC(=O)CSc2nc3nccnc3c(=O)n2CCc2c[nH]c3ccccc23)c(C)c1
#10 CCCCN(C)CCNC(=O)c1cc(-c2ccc(Cl)s2)nc2ccccc12
#11 Cc1cccc2cc(-c3nc(-c4cccs4)no3)c(=O)oc12
#12 O=C(c1cc2c(=O)oc3ccccc3c2s1)N1CCN(c2ccccc2)CC1
#13 Cc1ccc2nc(N3CCN(c4cccc(Cl)c4)CC3)c(-n3nc(C)cc3C)nc2c1
#14 COc1cccc(NC(=O)Cn2c(=O)n(CC(=O)NCCc3ccccc3)c(=O)c3sccc32)c1
#15 COc1ccc(NC(=O)CN2C(=O)COc3ccc(S(=O)(=O)N4CCOCC4)cc32)cc1Cl
#16 COc1cc(NC(=O)CCc2nc3cccnc3n2Cc2cccs2)cc(OC)c1OC

Assay by compound,9,10,11,12,13,14,15,16
PV pol inh,107.0,102.0,116.0,104.0,110.0,105.0,113.0,115.0
PV pol inh intensity,109.0,105.0,119.0,105.0,105.0,109.0,118.0,136.0

#17 COc1ccc(NC(=O)N(C(C)C)C2CCN(C(C)=O)CC2)c(OC)c1
#18 COc1cc(OC)cc(-c2nc3nc(C)c(CCC(=O)Nc4cc(C)cc(C)c4)c(C)n3n2)c1
#19 Cc1ccc(NC(=O)CCNS(=O)(=O)c2cccc3nonc23)cc1Cl
#20 Cc1oc2ncn(CC(C)C)c(=O)c2c1C(=O)N1CCN(c2ccccc2F)CC1
#21 COc1ccc(CNc2nc(-c3ccccc3)nn2C(=O)c2ccccc2OC)cc1
#22 CCCCN(CC)CCCNC(=O)c1cn(CC)c2ccc(S(=O)(=O)N3CCc4ccccc4C3)cc2c1=O
#23 CC(=O)Nc1ccc(S(=O)(=O)NCCc2csc3nc(-c4ccc(Cl)cc4)nn23)cc1
#24 COc1ccc(C(=O)NCc2ccc3c(c2)CCN3C(C)=O)cc1OC

Assay by compound,17,18,19,20,21,22,23,24
PV pol inh,118.0,106.0,108.0,115.0,104.0,103.0,103.0,102.0
PV pol inh intensity,116.0,104.0,109.0,109.0,105.0,106.0,114.0,110.0

#25 COc1ccc(CN2CCN(c3ncnc4sc5c(c34)CCCC5)CC2)cc1F
#26 O=c1oc2ccc3ccccc3c2cc1-c1nnc(Nc2ccc(Cl)cc2Cl)s1
#27 O=C(c1ccc2c(=O)n(CCc3ccccc3)c(=O)[nH]c2c1)N1CCN(c2ccc(Cl)cc2)CC1
#28 COc1ccc2c(c1)CC(C(=O)Nc1c(C)cc(C)cc1C)CO2 (centres undefined)
#29 COc1ccccc1Cn1c(CNS(=O)(=O)c2c(C)cc(C)cc2C)nc2cccnc21
#30 COc1ccc(N(C)C(=O)c2cc(S(=O)(=O)N3CCc4ccccc43)cn2C)c(OC)c1
#31 COc1ccc(OC)c(CNC(=O)c2ccc3c(c2)c(C)c(C)n3Cc2ccc(Cl)cc2)c1
#32 CCOC(=O)c1cc2c(=O)n3ccccc3nc2n(CC(C)C)c1=NC(=O)c1c(-c2c(F)cccc2Cl)noc1C

Assay by compound,25,26,27,28,29,30,31,32
PV pol inh,104.0,105.0,108.0,109.0,119.0,100.0,109.0,104.0
PV pol inh intensity,103.0,112.0,110.0,112.0,115.0,93.0,107.0,103.0

#33 COc1cc(C2C(=O)N(C3CCCCC3)CC(=O)N2Cc2ccc(C)cc2)ccc1OC(C)C (centres undefined)
#34 CCOc1ccc(NC(=O)CSc2nc(-c3ccccc3)c3cc(OCC)ccc3n2)cc1
#35 COC(=O)c1ccc(CNC(=O)c2nc(Cn3nc(C)c(Br)c3C)no2)cc1
#36 COc1cc(OC)c(NC(=O)c2c3c(nn2C)-c2ccccc2SC3)cc1Cl
#37 COc1cccc(CNC(=O)Cn2nc(-c3ccc(C)cc3)ccc2=O)c1
#38 Cc1cccc(Cn2c(=O)n(CCC(=O)NCCc3ccc(Cl)cc3)c(=O)c3sccc32)c1
#39 O=S(=O)(c1ccc(Cl)cc1)c1nnn2c1nc(NC1CCCC1)c1sccc12
#40 CCc1ccccc1Nc1nn2c(=O)c3ccc(C(=O)Nc4cc(C)cc(C)c4)cc3nc2s1

Assay by compound,33,34,35,36,37,38,39,40
PV pol inh,108.0,106.0,104.0,105.0,114.0,101.0,110.0,106.0
PV pol inh intensity,114.0,106.0,108.0,102.0,117.0,105.0,109.0,109.0

#41 COc1ccc(NC(=O)CCc2nnc3n(CC(C)C)c(=O)c4ccccc4n23)cc1OC
#42 Cc1ccc(Nc2ncc(C(=O)Nc3ccc(F)cc3F)c3ccccc23)cc1Cl
#43 CN(C(=O)c1nc(-c2cccc(F)c2)n2c1CCCCC2)c1ccccc1F
#44 CCc1ccc(NC(=O)C(Cc2ccccc2)NS(=O)(=O)c2ccc3c(c2)CCN3C(C)=O)cc1 (centres undefined)
#45 Cc1ccc(C)c(N2CCN(C(=O)C(C)n3c(C)c4cnn(-c5ccccc5)c(=O)c4c3C)CC2)c1 (centres undefined)
#46 COc1ccc(-c2cn3c(n2)sc2cc(C(=O)NCc4cccc(F)c4)ccc23)cc1
#47 Cc1ccc(N2C(=O)N(Cc3cc(=O)n4ccccc4n3)c3ccccc3S2(=O)=O)cc1Cl
#48 Cc1cccc(NC(=O)CSc2nc(C)cc(C)c2C(=O)Nc2ccc(Cl)cc2)c1

Assay by compound,41,42,43,44,45,46,47,48
PV pol inh,104.0,102.0,121.0,99.0,108.0,106.0,107.0,109.0
PV pol inh intensity,108.0,104.0,113.0,102.0,112.0,106.0,114.0,109.0

#49 CCc1nn(CC(=O)NCc2ccc(OC)cc2OC)c(=O)c2cc3c(OC)cccc3n12
#50 Cc1cc(C)cc(N(C)S(=O)(=O)c2nnc(NC(=O)COc3ccc(Cl)cc3)s2)c1
#51 Cc1ccc(NC(=O)CCn2nc(C)c3c(C)n(-c4ccccc4)nc3c2=O)cc1Cl
#52 Cc1ccc(N2C(=O)C(CC(=O)Nc3ccc(F)cc3)N(Cc3ccc4c(c3)OCO4)C2=O)cc1 (centres undefined)
#53 CC(C)NC(=O)CCSc1nc(-c2ccc3c(c2)OCO3)cc(C(F)(F)F)n1
#54 CCOc1ccc(S(=O)(=O)NCc2nc3cccnc3n2Cc2ccccc2OC)cc1
#55 Cn1c(=O)n(CCCc2ccccc2)c(=O)c2c1nc1n2CCN1c1ccccc1
#56 CCOc1cc(/C=C(\C#N)C(=O)NCC2CCCO2)ccc1O (centres undefined)

Assay by compound,49,50,51,52,53,54,55,56
PV pol inh,104.0,115.0,110.0,93.0,106.0,117.0,111.0,105.0
PV pol inh intensity,107.0,126.0,100.0,93.0,112.0,118.0,113.0,110.0

#57 CCN(CC)CCNC(=O)Cn1cnc2sc(C)c(S(=O)(=O)N3CCN(c4ccccc4OC)CC3)c2c1=O
#58 CCOC(=O)c1c(S(=O)(=O)N2CCC(C(=O)Nc3ccccc3OC)CC2)c(C)n(CC)c1C
#59 CC(C)CCNC(=O)CSc1nc2ccsc2c(=O)n1Cc1ccccc1Cl
#60 Cn1nc(-c2ccccc2F)c2cc(C(=O)N3CCN(c4ccc(F)cc4)CC3)sc21
#61 CCCOc1ccc(C2CC(=O)Nc3c2c(C)nn3-c2nncc(-c3cccc(OC)c3)n2)cc1OC (centres undefined)
#62 CC(=O)N1CCc2c(sc3c2c(=O)n(CCc2ccccc2)c(=O)n3Cc2ccccc2C)C1
#63 Cc1ccc(NC(=O)CN2C(=O)CCc3cc(S(=O)(=O)N4CCOCC4)ccc32)c(C)c1
#64 Cc1ccc(-c2cc(C(=O)N3CCN(S(=O)(=O)c4ccc(Br)s4)CC3)[nH]n2)cc1C

Assay by compound,57,58,59,60,61,62,63,64
PV pol inh,108.0,107.0,104.0,103.0,109.0,107.0,110.0,110.0
PV pol inh intensity,110.0,111.0,109.0,106.0,114.0,108.0,110.0,112.0

Quoted from the results shown for reference:
#48 Cc1cccc(NC(=O)CSc2nc(C)cc(C)c2C(=O)Nc2ccc(Cl)cc2)c1
#49 CCc1nn(CC(=O)NCc2ccc(OC)cc2OC)c(=O)c2cc3c(OC)cccc3n12
#50 Cc1cc(C)cc(N(C)S(=O)(=O)c2nnc(NC(=O)COc3ccc(Cl)cc3)s2)c1
#51 Cc1ccc(NC(=O)CCn2nc(C)c3c(C)n(-c4ccccc4)nc3c2=O)cc1Cl
#52 Cc1ccc(N2C(=O)C(CC(=O)Nc3ccc(F)cc3)N(Cc3ccc4c(c3)OCO4)C2=O)cc1 (centres undefined)
#53 CC(C)NC(=O)CCSc1nc(-c2ccc3c(c2)OCO3)cc(C(F)(F)F)n1
#54 CCOc1ccc(S(=O)(=O)NCc2nc3cccnc3n2Cc2ccccc2OC)cc1
#55 Cn1c(=O)n(CCCc2ccccc2)c(=O)c2c1nc1n2CCN1c1ccccc1
#56 CCOc1cc(/C=C(\C#N)C(=O)NCC2CCCO2)ccc1O (centres undefined)
#57 CCN(CC)CCNC(=O)Cn1cnc2sc(C)c(S(=O)(=O)N3CCN(c4ccccc4OC)CC3)c2c1=O

Assay by compound,48,49,50,51,52,53,54,55,56,57
PV pol inh,109.0,104.0,115.0,110.0,93.0,106.0,117.0,111.0,105.0,108.0
PV pol inh intensity,109.0,107.0,126.0,100.0,93.0,112.0,118.0,113.0,110.0,110.0

#58 CCOC(=O)c1c(S(=O)(=O)N2CCC(C(=O)Nc3ccccc3OC)CC2)c(C)n(CC)c1C
#59 CC(C)CCNC(=O)CSc1nc2ccsc2c(=O)n1Cc1ccccc1Cl
#60 Cn1nc(-c2ccccc2F)c2cc(C(=O)N3CCN(c4ccc(F)cc4)CC3)sc21
#61 CCCOc1ccc(C2CC(=O)Nc3c2c(C)nn3-c2nncc(-c3cccc(OC)c3)n2)cc1OC (centres undefined)

Assay by compound,58,59,60,61
PV pol inh,107.0,104.0,103.0,109.0
PV pol inh intensity,111.0,109.0,106.0,114.0

Other entries.
#65 COC(=O)c1ccc(NC(=O)CCOc2ccccc2)cc1
#66 Cc1sc(C2C(C#N)=C(N)N(c3ccc(Cl)cc3)C3=C2C(=O)CCC3)cc1CN1CCOCC1 (centres undefined)
#67 CCOc1ccc(NS(=O)(=O)c2ccc(NC(=O)N3CCCC3)cc2)cc1
#68 N#Cc1ccc(NC2=NS(=O)(=O)c3ccccc32)cc1
#69 COc1ccc2c(CNCc3ccc(Cl)cc3)c(C(=O)O)n(Cc3ccccc3C)c2c1
#70 O=S(=O)(c1ccc2nc(N3CCN(c4cccc(Cl)c4)CC3)ccc2c1)N1CCCCC1
#71 Cc1ccc(NC(=O)CN(Cc2ccccc2)S(=O)(=O)c2ccc3nc(C)sc3c2)c(C)c1
#72 CCN1CCN(C(c2ccccc2Cl)c2c(O)cc(C)n(CCOC)c2=O)CC1 (centres undefined)

Assay by compound,65,66,67,68,69,70,71,72
PV pol inh,106.0,108.0,102.0,98.0,109.0,103.0,108.0,110.0
PV pol inh intensity,110.0,115.0,107.0,106.0,111.0,109.0,113.0,100.0

#73 CCc1ccc(-n2nc(C)c3c(C)cc(=O)n(CC(=O)Nc4ccc(C(C)=O)cc4)c32)cc1
#74 COc1cc(C(=O)Nc2ccc3nc(SCc4ccc(C)cc4)sc3c2)cc(OC)c1OC
#75 O=C1C(c2ccc(F)cc2)N(CCc2ccc(Cl)cc2)C(=O)CN1C1CCCCCC1 (centres undefined)
#76 Cc1ccccc1C(=O)OCc1cc(=O)n2nc(C(C)C)sc2n1
#77 CCc1cccc(NC(=O)Cn2c(=O)n(-c3ccccc3C)c(=O)c3c2c2cc(C)ccc2n3C)c1
#78 CN(C(=O)CSc1nc(C2CCCC2)nc2c1c(=O)n(C)c(=O)n2C)c1ccccc1
#79 CCOC(=O)c1ccc2c(c1)N(Cc1cccc([N+](=O)[O-])c1)C(=O)c1ccccc1S2
#80 CSc1cccc(N2C(=O)N(Cc3ccc([N+](=O)[O-])cc3)c3ccccc3S2(=O)=O)c1
#81 Cc1cccc(-c2cc(NC(=O)c3ccccc3C)n(-c3ccccc3)n2)c1

Assay by compound,73,74,75,76,77,78,79,80,81
PV pol inh,105.0,121.0,115.0,109.0,114.0,111.0,109.0,114.0,106.0
PV pol inh intensity,112.0,121.0,108.0,113.0,114.0,103.0,113.0,113.0,110.0
